Screens (PubChem)
D2 PAM = potentiates the human D2 dopamine receptor allosterically; P14416; DiscoveRx D2 beta-arrestin cells, luminescence, 90 min; 100% = 57 uM dopamine signal; potentiation, % (no concentration beside the values); 0.23% of 360,000 active; AID 624464; active = potentiation of 50% or more; inconclusive = 30% to 50%; inactive = 30% or less;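 further: compound concentration not given in the record; tested on top of an EC20 dose of dopamine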
Target sequence (P14416 whole entry, looked up): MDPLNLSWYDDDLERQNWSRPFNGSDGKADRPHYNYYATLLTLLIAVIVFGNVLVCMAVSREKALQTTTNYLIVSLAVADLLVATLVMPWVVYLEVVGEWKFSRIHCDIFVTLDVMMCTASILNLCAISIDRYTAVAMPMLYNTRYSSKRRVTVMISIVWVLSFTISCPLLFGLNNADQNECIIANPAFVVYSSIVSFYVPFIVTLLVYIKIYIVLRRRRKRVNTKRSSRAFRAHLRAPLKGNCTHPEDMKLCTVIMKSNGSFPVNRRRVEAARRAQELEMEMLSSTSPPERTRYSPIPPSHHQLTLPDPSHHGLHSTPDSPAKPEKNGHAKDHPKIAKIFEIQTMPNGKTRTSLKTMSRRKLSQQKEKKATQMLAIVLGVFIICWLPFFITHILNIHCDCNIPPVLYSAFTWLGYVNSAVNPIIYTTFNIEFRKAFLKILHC
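D2 cells co-treated with compound plus 50 nM dopamine (EC20) for 90 min at 37 deg C to detect potentiation. Beta-arrestin recruitment was read as enzyme-fragment luminescence after 1 h at ambient temperature. Full response was set by 57 uM dopamine.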
TRPML1 ag = activates the human TRPML1 channel; Q9GZU1; TRPML1-expressing cells, Ca2+ dye fluorescence, FDSS; host cell line not named in the record; reference of the full effect not given here; activation, % (concentration not given with the values); 0.12% of 410,000 active; AID 624414; in the data active = activation above about 50%; inconclusive = about 30% to 50%; inactive = below about 30%; further: 0% is about no effect; the text of the record puts the active cut at 80%
Target sequence (Q9GZU1 whole entry, looked up): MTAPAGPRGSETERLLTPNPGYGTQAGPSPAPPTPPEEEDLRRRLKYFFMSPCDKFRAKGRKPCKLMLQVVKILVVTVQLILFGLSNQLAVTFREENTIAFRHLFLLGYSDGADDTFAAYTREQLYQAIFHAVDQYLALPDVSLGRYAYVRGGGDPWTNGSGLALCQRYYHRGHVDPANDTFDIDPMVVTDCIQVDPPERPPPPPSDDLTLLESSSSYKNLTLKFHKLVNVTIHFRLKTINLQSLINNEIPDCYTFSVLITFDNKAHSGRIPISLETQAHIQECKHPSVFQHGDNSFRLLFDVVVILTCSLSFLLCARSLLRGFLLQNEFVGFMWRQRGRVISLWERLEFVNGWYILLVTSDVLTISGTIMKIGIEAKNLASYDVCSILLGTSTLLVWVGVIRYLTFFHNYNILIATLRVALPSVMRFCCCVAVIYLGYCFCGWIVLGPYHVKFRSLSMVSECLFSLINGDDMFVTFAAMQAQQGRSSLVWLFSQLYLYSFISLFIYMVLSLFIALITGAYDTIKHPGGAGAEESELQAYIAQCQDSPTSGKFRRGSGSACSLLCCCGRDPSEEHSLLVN
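In this qHTS format, compounds were pin-transferred onto Ca8-dye-loaded TRPML1-DL cells induced with Tet overnight, and intracellular Ca2+ fluorescence was recorded kinetically for 110 s after a 10 s baseline. A subsequent 4uM final 54-4 (EC80) addition followed by a second 110 s read served as the antagonist phase.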
TRPML1 blocker = human mucolipin-1 channel inhibition. Q9GZU1. TRPML1-inducible cells, Ca2+ dye fluorescence, FDSS; active compounds read low; inhibition of EC80 agonist-evoked calcium signal. activity change, negative = inhibition, % (test concentration not listed). 0.02% of 390,000 active; in the data active means activity change below about -50%; inconclusive means about -30% to -50%; inactive means above about -30%;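 further: stimulus is agonist 54-4 at its EC80 concentration; on the % scale 0 is the no-effect control and ±100 the full control effect; compound concentration not given in the record; the text of the record puts the active cut at -80%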
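TRPML1-DL cells, Tet-induced overnight (~16 h, 37 °C) at 1,500 cells/well, were loaded with Ca8 no-wash dye plus quencher for 45-90 min at room temperature. Compounds were pinned during FDSS kinetic reading; agonist 54-4 at EC80 (4 uM final) then added.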
CtBP-E1A inh = blocks the CtBP interaction with E1A. AlphaScreen GST-E1A/His-CtBP binding, 1536-well; active compounds read low; control for the full effect not named in the record. activity change, % (concentration not given with the values). 0.49% of 340,000 active. AID 651724; in the data active means activity change below about -65%; inconclusive means about -30% to -65%; inactive means above about -30%; further: on the % scale 0 is the no-effect control and ±100 the full control effect
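Protein mix (5X: 125 nM each GST-E1A, His-CtBP) was incubated with pinned compound 2 h at 37 deg C in dark, in 50 mM Tris pH 8.0 buffer with 300 mM NaCl. Glutathione donor and nickel acceptor beads followed; AlphaScreen signal read after 1 h.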
Six1-Eya2 blk = inhibitors of human Six1/Eya2 interaction; AlphaScreen GST-Six1/His-Eya2 binding, biochemical; active compounds read low; control for the full effect not named in the record; activity change, % (test concentration not listed); 0.56% of 360,000 active; in the data active = activity change below about -65%; inconclusive = about -30% to -65%; inactive = above about -30%; further: on the % scale 0 is the no-effect control and ±100 the full control effect
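AlphaScreen with GST-Six1 and His-Eya2 (5X mix: 250 nM and 500 nM), glutathione donor and nickel acceptor beads; buffer 50 mM Tris pH 8.0, 300 mM NaCl, 1 mM TCEP; 1 h at 37 C in the dark.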
TRPV1 PAM = enhances activation of the human vanilloid receptor TRPV1. TRPV1-expressing cells, Fluo-8 calcium influx, capsaicin EC20 potentiation; host cell line not named in the record; control for the full effect not named in the record. potentiation, % at 8.33 µM. 0.02% of 320,000 active; active means potentiation above 80%; inconclusive means 30% to 80%; inactive means below 30%; further: 0% is about no effect
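Fluo-8 calcium influx in TRPV1-expressing cells, kinetic read (ex 480/em 520 nm). Compound added and read 3 min for agonist activity, followed by capsaicin at EC20 final and 2 min further read for enhancement.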
An asterisk follows results filed as active; ? = inconclusive; . = no result given; & = joins results of further samples.

#	Compound	D2 PAM	TRPV1 PAM	CtBP-E1A inh	TRPML1 blocker	Six1-Eya2 blk	TRPML1 ag
1	Oc1ccc(N=Nc2n[nH]c(-c3ccc(Cl)cc3)n2)cc1	-3	-13	-16	18	-15	2.8
2	O=C(OCCCN=C1NS(=O)(=O)c2ccccc21)c1cccs1	-2	11	2	7	-1	0.1
3	CCOc1ccc(S(=O)(=O)N2CCOCC2)cc1NC(=O)CSC(=S)N1CCCC1	-11	-14	-4	-7	-1	-0.9
4	O=C(O)c1ccc(N=N/C(=N\Nc2ccc(C(=O)O)cc2)c2ccccc2)cc1	-33	-3	-22	-6	?	0.0
5	CC(=O)Nc1sc2c(c1C#N)CCCCC2	-11	-8	-11	-4	-1	-1.0
6	Cc1oc2c(c(C)cc3oc(=O)c(CC(=O)NCCC(=O)O)c(C)c32)c1C	-2	5	?	12	-16	0.9
7	COC(=O)c1ccc(C2/C(=C(\O)c3cccc(OC)c3)C(=O)C(=O)N2CCCN(C)C)cc1 (configuration not stated)	-3	-5	4	22	2	-0.2
8	O=C1CCCc2nc(N3CCc4ccccc43)ncc21	-13	-3	11	-19	14	-0.4
9	O=C(NCC(O)c1ccc2ccccc2c1)c1c(F)cccc1F (configuration not stated)	-9	5	3	25	1	-0.1
10	CCCNCC(O)Cn1c2ccccc2n2c(=O)cc(C)c(C#N)c12 (configuration not stated)	-7	3	1	0	3	1.3
11	CCOC(=O)c1ccc(NS(=O)(=O)c2ccc3[nH]c(=O)[nH]c3c2)cc1	-10	-1	-6	22	-4	-0.2
12	O=C(CN1C(=O)CCS(=O)(=O)c2ccccc21)Nc1cccc(F)c1	-4	7	-3	8	-6	0.6
13	CCc1ccc(NC(=O)CSc2nc3ccccc3c(=O)n2CCCN2CCC(C)CC2)cc1	-14	13	-8	13	-9	0.0
14	Cc1ccc(S(=O)(=O)N(C)C)cc1NC(=O)CN1C(=O)NC2(CCCc3ccccc32)C1=O (configuration not stated)	-22	8	-7	32	2	2.2
15	COc1cc(C(=O)NC(CCSC)C(=O)OCC(=O)C(C)(C)C)cc(OC)c1OC (configuration not stated)	-19	6	.	9	-15	-0.9
16	O=C(Oc1cccnc1)c1ccco1	-5	2	10	-17	7	0.0
17	Cc1oc(-c2ccccc2F)nc1CSCC(=O)NC1CCCC1	-2	2	6	2	-1	-1.3
18	CCO[C@@H]1OC(C(=O)NCc2ccccc2)=C[C@H](c2ccc(C(F)(F)F)cc2)[C@H]1CCCO	-10	-1	-24	-6	5	1.6
19	CCOc1ccc(S(=O)(=O)N(CC)CC(=O)NCc2cccnc2)cc1	1	-2	-15	-10	11	1.2
20	O=C(c1ccc(OC2CCN(Cc3ccc(C(F)(F)F)cc3)CC2)cc1)N1CCCCC1	-8	-8	3	0	2	0.2
21	CCOc1ccc(-c2[nH]ncc2-c2csc(C)n2)c(O)c1	-1	8	4	-13	-4	0.0
22	CN(C1CC(C)(C)N(O)C(C)(C)C1)S(=O)(=O)CC12CCC(CC1=O)C2(C)C (configuration not stated)	-2	-5	13	21	5	0.4
23	CC(=O)NCCc1ccc(C(=O)COC(=O)c2ccco2)cc1	-27	.	0	-11	-1	-0.7
24	c1ccc(CN2CCN(CCN3CCn4c3nc3ccccc34)CC2)cc1	-38	-2	5	5	4	0.6
25	COc1ccc(-c2nnc(SCC(=O)NC3CC3)o2)cc1	-3	26	.	-2	-1	0.2
26	CC(=O)N(C)c1ccc(NC(=O)CCN2C(=O)c3ccccc3C2=O)cc1	0	1	0	-12	1	0.1
27	Cc1ccc(C(=O)N/N=C/c2cc(Br)ccc2O)cn1	-5	-17	-91*	20	-89*	1.7
28	O=[N+]([O-])c1cc(Oc2cccnc2)cc([N+](=O)[O-])c1	5	-10	1	9	-6	1.7
29	Cc1ccccc1C(=O)N1CCC(n2nccc2NC(=O)C2CC2)CC1	8	-12	7	-8	-2	0.2
30	CC(=O)N[C@@H](CC(=O)N[C@H](CCC(=O)O)C(=O)O)C(=O)O	-5	10	6	18	0	-0.6

(continued)
#	Compound	D2 PAM	TRPV1 PAM	CtBP-E1A inh	TRPML1 blocker	Six1-Eya2 blk	TRPML1 ag
31	O=C(Nc1ccc2c(c1)OCO2)C1CCCN(c2nc3ccccc3s2)C1 (configuration not stated)	-12	-9	-21	9	-21	1.2
32	O=C1NC2(CCCCC2)C(=O)N1c1ccccc1	-1	7	-1	-12	6	-0.1
33	O=[N+]([O-])c1ccc(Oc2cc(NC3CCCCCCC3)c([N+](=O)[O-])cc2[N+](=O)[O-])cc1	-5	-15	-15	-9	-18	-0.7
34	O=C(CCN1C(=O)c2cccc3cccc(c23)C1=O)N1CCN(c2ccccc2F)CC1	-7	-1	?	5	-5	-0.2
35	CCCCn1c(CCC(=O)O)ccc1-c1cccs1	-9	6	-9	29	-2	0.2
36	Cc1ccccc1CSc1nnc([C@@H]2CCCN2)o1	-2	5	3	5	20	2.1
37	CCc1ccc(NC(=O)/C(C#N)=C/c2cc3ccc(C)cc3nc2N2CCOCC2)cc1	10	-3	3	10	-3	1.2
38	O=C(Nc1ccc2ccccc2n1)Nc1cccs1	-3	3	1	8	-6	1.2
39	CN(c1ccccc1)S(=O)(=O)c1ccc(C(=O)N2CCc3ccccc3C2)cc1	-8	-8	.	0	2	0.4
40	c1ccc(N=Nc2ccc(C3=NCCO3)cc2)cc1	-8	.	-23	-4	?	-0.6
41	COCCC(=O)N1CCC(Oc2ccc(C(=O)N(C)Cc3cc(C)no3)cc2)CC1	-9	5	-1	2	6	0.3
42	O=C(CSc1nnc(NCc2ccccc2)s1)NC1CCS(=O)(=O)C1 (configuration not stated)	4	0	0	-10	0	0.0
43	CN(Cc1ccccc1)C(=O)c1cccnc1	-12	6	-10	16	15	-1.1
44	Cc1ccc(SC(C)C(=O)Nc2ncn[nH]2)cc1 (configuration not stated)	-1	-14	-11	7	-15	-0.7
45	CCCn1c(SCC(=O)N2CCN(c3ccc(OC)cc3)CC2)nc2c1c(=O)n(C)c(=O)n2C	-7	19	2	-6	-1	-0.1
46	O=C(O)c1ccc(Nc2nc3c(s2)CCCC3)cc1	0	5	7	2	-1	-0.1
47	CCOc1ccc(CN(C)Cc2cc(=O)oc3c(C)c(C)ccc23)cc1OC	5	.	-7	1	-8	2.1
48	Cc1cccc(OCCNc2ccc(C(F)(F)F)cc2[N+](=O)[O-])c1	3	-8	27	-16	19	0.8
49	Cc1cccc(NC(=S)NC2CC3CCCC(C2)N3Cc2cccs2)c1 (configuration not stated)	-30	-30	8	8	-18	1.9
50	CSCCC(NC(=O)C1CCC(C)CC1)C(=O)NCCN1CCOCC1 (configuration not stated)	-2	-9	5	-3	1	-0.6
51	c1ccc(COc2cccc(-c3cc4nc(NCc5cccs5)ccn4n3)c2)cc1	-1	.	1	.	5	-0.9
52	CCOc1ccc(NC(=O)CN(C)C(=O)C2CC(=O)N(Cc3ccco3)C2)cc1OCC (configuration not stated)	-5	3	.	-13	-5	-0.4
53	Cn1nc(C(=O)N2CCN(c3ccc(Cl)cc3)CC2)c2c1-c1ccccc1S(=O)(=O)C2	-1	-2	-11	-15&-16	-13	1.5&0.3
54	O=C1C(O)CCN1Cc1ccccc1 (configuration not stated)	-1	.	7	-3	8	0.7
55	CC(C)c1ccc(S(=O)(=O)c2cc3cc(Br)ccc3oc2=O)cc1	-7	-21	-4	-1	2	2.0
56	COC[C@H]1CCCN1c1ccc2c(c1)O[C@@H](COCc1ccccc1)CN([C@H](C)c1ccccc1)S2(=O)=O	.	.	-27	.	3	0.0
57	CCn1c(SCC(=O)N2CCc3ccccc32)nnc1-c1c[nH]c2ccccc12	-6	.	-2	-5	-1	2.1
58	CN1CCN(Cc2c(O)ccc3occ(C(=O)c4ccccc4)c23)CC1	-18	20	-3	18	3	0.3
59	COc1cc(OC)c(OC)cc1/C=N/Nc1ccc(Cl)nn1	1	12	-18	0	-23	-1.3
60	Cc1cccc(NC(=O)C2(c3ccccc3)CCOCC2)c1	-9	1	4	-2	8	-0.1

Compound profiles (already shown).
COc1cc(OC)c(OC)cc1/C=N/Nc1ccc(Cl)nn1 reads D2 PAM = 1; TRPV1 PAM = 12; CtBP-E1A inh = -18; TRPML1 blocker = 0; Six1-Eya2 blk = -23; TRPML1 ag = -1.3
Cc1cccc(NC(=S)NC2CC3CCCC(C2)N3Cc2cccs2)c1 (configuration not stated) reads D2 PAM = -30; TRPV1 PAM = -30; CtBP-E1A inh = 8; TRPML1 blocker = 8; Six1-Eya2 blk = -18; TRPML1 ag = 1.9
CSCCC(NC(=O)C1CCC(C)CC1)C(=O)NCCN1CCOCC1 (configuration not stated) reads D2 PAM = -2; TRPV1 PAM = -9; CtBP-E1A inh = 5; TRPML1 blocker = -3; Six1-Eya2 blk = 1; TRPML1 ag = -0.6

In a second layout: results already given.
58. CN1CCN(Cc2c(O)ccc3occ(C(=O)c4ccccc4)c23)CC1
9. O=C(NCC(O)c1ccc2ccccc2c1)c1c(F)cccc1F (configuration not stated)
entry no. | 58 | 9
D2 PAM | -18 | -9
TRPV1 PAM | 20 | 5
CtBP-E1A inh | -3 | 3
TRPML1 blocker | 18 | 25
Six1-Eya2 blk | 3 | 1
TRPML1 ag | 0.3 | -0.1

Other compounds.
#	Compound	D2 PAM	TRPV1 PAM	CtBP-E1A inh	TRPML1 blocker	Six1-Eya2 blk	TRPML1 ag
61	CCOC(=O)C1(Cc2ccccc2C)CCCN(C(=O)c2ccc(OC)o2)C1 (configuration not stated)	-2	-20	-2	-10	0	-0.1
62	CC(C)COc1ccc(C(=O)N/C(=C\c2cccc([N+](=O)[O-])c2)C(=O)O)cc1	-2	8	6	2	3	-0.1
63	COc1ccc(OC)c(/C=C2\SC(=S)N(NS(=O)(=O)c3ccc(C)cc3)C2=O)c1	-6	29	-4	-7	-7	4.9
64	Cc1cccc(NC(=O)CCC(=O)Nc2nnc(C3CCCCC3)s2)c1	-4	10	-21	-1	2	-0.2
65	Cc1cc(C(=O)OCC(=O)c2cccs2)c2ccccc2n1	-3	-12	7	32	-4	1.2
66	COc1ccc(CCNC(=O)CN2C(=O)c3ccccc3S2(=O)=O)cc1	-5	-8	13	-8	2	-0.9
67	COc1cccc(NC(=O)N2CCc3nc(NCc4cccc(Oc5ccccc5)c4)ncc3C2)c1	-4	.	-10	.	-8	-0.5
68	COc1ccc(CNC(=O)C2CCCN(S(=O)(=O)c3ccc(-n4cnnn4)cc3)C2)cc1 (configuration not stated)	3	-6	7	8	-2	-0.8
69	COc1ccc2c(CC(=O)OCC(=O)Nc3ccc(C)cc3)coc2c1	-8	-6	5	0	-12	0.8
70	CCOC(=O)c1[nH]c2ccccc2c1NC(=O)CC(C)C	-8	-1	0	-6	8	0.1
71	CC1=Nc2ccccc2N=C(NC(=O)c2ccccc2)C1c1ccc(Cl)cc1 (configuration not stated)	-7	0	1	51	-10	1.8
72	COc1ccc(C2(C)NC(=O)N(CC(=O)NC3CC3)C2=O)cc1 (configuration not stated)	-5	.	3	-13	9	-0.3
73	Cc1ccc(NC(=O)CSc2nnnn2C)cc1S(=O)(=O)N(C)C	-5	0	-5	-9	8	-0.5
74	Cc1cc2ccccc2n2c(SCC(=O)N3CCc4ccccc4C3)nnc12	-25	-3	-11	0	-11	-1.1
75	CC(CC1CC(C)(C)OC1=O)C(=O)Nc1nncs1 (configuration not stated)	-3	12	5	10	7	0.4
